Abs 340nm: absorbance at 340 nm. 65,000 tested, under 10 active. compound absorbance at 340 nm, fold over control. fold change at 10 µM;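 active = at 10 µM dose, initial 340 nm absorbance at least 2 fold that of control wells; inactive = change under 2 fold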;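 note: initial absorbance extrapolated from kinetic A340 decline of NADH oxidation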
HEK293 NFkB inh: lowers PMA/ionomycin-induced NF-kB signal in HEK293 cells. HEK-293 NF-kB luciferase reporter, luminescence. inhibition, % at 3 µM. 62,000 compounds, 0.21% hits. AID 465;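 active = inhibition above the mean of all tested compounds plus 3 SD, cut at about 40% in these data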;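 note: 0% = stimulated DMSO wells and 100% = 10 µM reference inhibitor 5653914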
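Reagent: PMA plus ionomycin mix as NF-kB-activating stimulus. Assay system: NF-kB luciferase reporter HEK-293 cells. Technique: luminescence from luciferase substrate reagent. Incubation: 1 h compound pre-incubation, 16 h PMA/ionomycin at 37 °C. Benchmarks: DMSO only as uninhibited control, 10 µM reference inhibitor as full inhibition. Repeats: tested once.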
PKA inh: inhibitors of human protein kinase A; inhibition, % at 6 µM; PKA Kemptide phosphorylation, Kinase-Glo ATP luminescence; AID 524; P17612; 65,000 compounds, 0.1% hits;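 active = inhibition above the screen-wide mean inhibition plus 3 SD, cut at about 21% in these data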; note: many of its hits are not listed in these tables
MMP13 inh: inhibitors of human MMP13 | P45452 | AID 570 | MMP-13 fTHP FRET cleavage, Mca fluorescence | 65,000 compounds, 0.07% hits | inhibition, % at 4 µM;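 active = inhibition above the mean of compound-free control plate wells plus 3 SD, cut at about 14% in these data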;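 note: 0% = DMSO wells and 100% = wells with reference MMP-13 inhibitor after basal subtraction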
Fluor 339 460: intrinsic fluorescence of library compounds, ex339/em460 – biochemical, MLSMR library, data from DPM-DC assay, artefact control, profiling panel | 65,000 compounds, 5.5% hits | compound autofluorescence, ex339/em460 nm, NADH buffer; hits give high values; 1 = no-compound wells, NADH background | fluorescence fold increase at 10 µM;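 active = at 10 µM, mean starting fluorescence two-fold or more over control wells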;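 note: signal is the first read of a kinetic run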
tolC growth inh: growth inhibitors of E. coli BW25113 tolC mutant; OD615; growth inhibition, % at 10 µM (by protocol); 65,000 compounds, 2.2% hits; AID 573;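 active = growth inhibition at or above a cutoff equal to the mean over every tested compound plus 3 SD, cut at about 60% in these data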;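 note: growth measured after 20 h incubation at 37 °C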
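signal = optical density read at 615 nm | test system = E. coli ΔtolC::kan strain BW25113 | timing = 20 h compound exposure of bacteria at 37 °C | buffer or medium = LB medium plus 50 µg/mL kanamycin | compound dosing = 10 µM final, single dose | evaluation = % inhibition of E. coli growth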
ROCK2 inh: blocks human Rho kinase 2 activity; purified ROCK2, Kinase-Glo ATP depletion luminescence; O75116; 60,000 compounds, 0.35% hits; inhibition, % at 6 µM;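 active = inhibition above the screen-wide mean inhibition plus 3 SD, cut at about 18% in these data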;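 note: plate controls were DMSO wells for no effect and Y-27632 control wells after no-enzyme background subtraction for full effect; many of its hits are not listed in these tables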
JNK3 blocker: blocks human JNK3 kinase activity. 60,000 compounds, 0.61% hits. inhibition, % at 8 µM. purified JNK3 kinase activity, HTS. P53779; in the data active = inhibition above about 17%;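 note: 0% = DMSO and 100% = reference inhibitor; many of its hits are not listed in these tables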
Target sequence (P53779 whole entry, looked up): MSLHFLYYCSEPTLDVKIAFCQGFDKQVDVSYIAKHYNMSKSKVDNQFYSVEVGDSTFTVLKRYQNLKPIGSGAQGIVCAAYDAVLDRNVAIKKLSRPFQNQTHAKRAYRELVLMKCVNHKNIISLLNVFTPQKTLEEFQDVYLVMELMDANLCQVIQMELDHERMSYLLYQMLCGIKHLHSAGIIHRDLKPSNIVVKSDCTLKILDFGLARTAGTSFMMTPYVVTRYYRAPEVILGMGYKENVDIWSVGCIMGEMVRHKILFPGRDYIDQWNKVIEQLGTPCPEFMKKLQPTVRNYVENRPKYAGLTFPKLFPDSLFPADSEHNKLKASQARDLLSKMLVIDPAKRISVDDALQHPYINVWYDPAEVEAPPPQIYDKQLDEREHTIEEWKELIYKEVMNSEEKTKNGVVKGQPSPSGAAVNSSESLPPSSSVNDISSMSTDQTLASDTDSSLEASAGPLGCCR
* marks the source's active call; other numbers are inactive results; / = no result given; [ ] = another dose, or the depositor's remark. Not all compounds are listed, so the mix of outcomes need not match the whole.

1. Cc1ccc2nc(SCC(=O)O)nc(C)c2c1
2. C/C(=N\O)C(=O)NCC1CCNCC1
3. Cc1cc(OCCNCCO)cc(C)c1Cl
4. N#Cc1c(N)nc2c(c1-c1ccccc1)CCCC2
5. COC(=O)/C=c1\sc2n(c1=O)C(C)=CC(C)(C)N=2

| compound no. | 1 | 2 | 3 | 4 | 5 |
| --- | --- | --- | --- | --- | --- |
| MMP13 inh | 1 | -5 | -2 | -5 | -2 |
| ROCK2 inh | -1 | -4 | 2 | 3 | -7 |
| tolC growth inh | -19 | -18 | -6 | 15 | 9 |
| JNK3 blocker | 8 | 7 | -2 | 12 | 1 |
| Fluor 339 460 | 1.3 | 1.1 | 1.1 | 1.3 | 1.1 |
| HEK293 NFkB inh | -11 | 5 | 12 | 10 | 5 |
| Abs 340nm | 1.1 | 0.95 | 1.1 | 1.1 | 1.1 |
| PKA inh | 5 | -1 | 7 | 2 | 1 |

6. Cc1ccc(/C(C#N)=C\c2cn(C)c3ccccc23)cc1
7. CSc1ccc(-c2c(C#N)c(N)nc3c2c(C)nn3-c2ccccc2)cc1
8. O=C(CC1Nc2ccccc2NC1=O)NCc1cccnc1 (stereo not given)
9. COC(=O)C1C(=O)c2c([nH]c(C(=O)OC3CCCCC3)c2C)CC1C (stereo not given)
10. CCCc1nnc(NC(=O)CCC(=O)O)s1

| compound no. | 6 | 7 | 8 | 9 | 10 |
| --- | --- | --- | --- | --- | --- |
| MMP13 inh | -5 | -66[fluorescence artefact?] | -12 | 6 | -9 |
| ROCK2 inh | 3 | 6 | 6 | 0 | 2 |
| tolC growth inh | 44 | 6 | -20 | 1 | -10 |
| JNK3 blocker | -4 | -2 | 2 | 2 | -1 |
| Fluor 339 460 | 1.1 | 3.9* | 1.6 | 1 | 1.1 |
| HEK293 NFkB inh | 13 | 12 | 11 | -37 | 4 |
| Abs 340nm | 1.1 | 1 | 1 | 1 | 1 |
| PKA inh | 11 | 3 | 12 | 6 | 8 |

11. CCCCn1c(SCC(=O)Nc2nnc(CC)s2)nc2c1c(=O)n(C)c(=O)n2C
12. COC1CCCCC1Nc1cc(C)ccc1C (stereo not given)
13. COc1cc(CNc2cc(C)ccc2C)cc(OC)c1OC
14. CCN(CC)S(=O)(=O)c1ccc(NC(=O)c2c(-c3ccccc3)noc2C)cc1
15. Cc1c(C(=O)O)[nH]c2c1C(=O)CC(c1ccc(Cl)cc1)C2 (stereo not given)

| compound no. | 11 | 12 | 13 | 14 | 15 |
| --- | --- | --- | --- | --- | --- |
| MMP13 inh | 3 | 2 | 0 | 5 | 2 |
| ROCK2 inh | 2 | 3 | 4 | -5 | -2 |
| tolC growth inh | 2 | -14 | -2 | 34 | 6 |
| JNK3 blocker | -5 | -4 | -5 | -3 | -5 |
| Fluor 339 460 | 1.1 | 1.1 | 1.1 | 0.99 | 1 |
| HEK293 NFkB inh | 7 | 17 | -1 | 6 | 2 |
| Abs 340nm | 1 | 1 | 1.1 | 1.1 | 0.99 |
| PKA inh | -2 | -1 | 9 | -5 | -3 |

16. Cc1nc2c([nH]1)C1(CCN(Cc3ccccc3)CC1)C(C#N)=C(N)O2
17. COC(=O)c1ccc2c(=O)n3c(nc2c1)SCC(c1ccccc1)=N3
18. Cc1ccc(NC(=O)CCNS(=O)(=O)c2ccc3c(c2)oc(=O)n3C)cc1
19. O=C(c1ccco1)N1CCN(c2ccc(Cl)cc2)CC1
20. CCOC(=O)c1[nH]c(C)c(C(=O)OCC(=O)N2CCCCC2C)c1C (stereo not given)

| compound no. | 16 | 17 | 18 | 19 | 20 |
| --- | --- | --- | --- | --- | --- |
| MMP13 inh | 6 | 3 | 0 | 1 | -5 |
| ROCK2 inh | 3 | 0 | 5 | 6 | 2 |
| tolC growth inh | -12 | -19 | -1 | 11 | -1 |
| JNK3 blocker | 5 | -2 | 4 | 2 | 1 |
| Fluor 339 460 | 1.1 | 1.1 | 1.1 | 1.1 | 1.1 |
| HEK293 NFkB inh | 5 | 6 | 10 | -1 | 6 |
| Abs 340nm | 1 | 1 | 1 | 1 | 0.99 |
| PKA inh | 10 | -9 | 9 | 6 | 2 |

Some of these compounds in order of molar mass, lowest first:
10. CCCc1nnc(NC(=O)CCC(=O)O)s1
5. COC(=O)/C=c1\sc2n(c1=O)C(C)=CC(C)(C)N=2
6. Cc1ccc(/C(C#N)=C\c2cn(C)c3ccccc23)cc1
19. O=C(c1ccco1)N1CCN(c2ccc(Cl)cc2)CC1
8. O=C(CC1Nc2ccccc2NC1=O)NCc1cccnc1 (stereo not given)
13. COc1cc(CNc2cc(C)ccc2C)cc(OC)c1OC
9. COC(=O)C1C(=O)c2c([nH]c(C(=O)OC3CCCCC3)c2C)CC1C (stereo not given)

| compound no. | 10 | 5 | 6 | 19 | 8 | 13 | 9 |
| --- | --- | --- | --- | --- | --- | --- | --- |
| MMP13 inh | -9 | -2 | -5 | 1 | -12 | 0 | 6 |
| ROCK2 inh | 2 | -7 | 3 | 6 | 6 | 4 | 0 |
| tolC growth inh | -10 | 9 | 44 | 11 | -20 | -2 | 1 |
| JNK3 blocker | -1 | 1 | -4 | 2 | 2 | -5 | 2 |
| Fluor 339 460 | 1.1 | 1.1 | 1.1 | 1.1 | 1.6 | 1.1 | 1 |
| HEK293 NFkB inh | 4 | 5 | 13 | -1 | 11 | -1 | -37 |
| Abs 340nm | 1 | 1.1 | 1.1 | 1 | 1 | 1.1 | 1 |
| PKA inh | 8 | 1 | 11 | 6 | 12 | 9 | 6 |

20. CCOC(=O)c1[nH]c(C)c(C(=O)OCC(=O)N2CCCCC2C)c1C (stereo not given)
17. COC(=O)c1ccc2c(=O)n3c(nc2c1)SCC(c1ccccc1)=N3
7. CSc1ccc(-c2c(C#N)c(N)nc3c2c(C)nn3-c2ccccc2)cc1
18. Cc1ccc(NC(=O)CCNS(=O)(=O)c2ccc3c(c2)oc(=O)n3C)cc1
14. CCN(CC)S(=O)(=O)c1ccc(NC(=O)c2c(-c3ccccc3)noc2C)cc1
11. CCCCn1c(SCC(=O)Nc2nnc(CC)s2)nc2c1c(=O)n(C)c(=O)n2C

| compound no. | 20 | 17 | 7 | 18 | 14 | 11 |
| --- | --- | --- | --- | --- | --- | --- |
| MMP13 inh | -5 | 3 | -66[fluorescence artefact?] | 0 | 5 | 3 |
| ROCK2 inh | 2 | 0 | 6 | 5 | -5 | 2 |
| tolC growth inh | -1 | -19 | 6 | -1 | 34 | 2 |
| JNK3 blocker | 1 | -2 | -2 | 4 | -3 | -5 |
| Fluor 339 460 | 1.1 | 1.1 | 3.9* | 1.1 | 0.99 | 1.1 |
| HEK293 NFkB inh | 6 | 6 | 12 | 10 | 6 | 7 |
| Abs 340nm | 0.99 | 1 | 1 | 1 | 1.1 | 1 |
| PKA inh | 2 | -9 | 3 | 9 | -5 | -2 |

Remaining list, next part.
21. COc1cccc(NC(=O)C2CC(=O)n3cnnc3S2)c1 (stereo not given)
22. COC(=O)c1c(-c2cccs2)csc1NC(=O)c1cccnc1
23. CCOC(=O)c1c(C)n(C)c2cc(Br)c(C(=O)OC)cc12
24. Clc1ccc(C(c2nnnn2C2CCCCC2)N(Cc2cccnc2)Cc2ccco2)cc1 (stereo not given)
25. COc1ccc2c(c1)c1nc(SCC(C)C)n(CCO)c(=O)c1n2C

| compound no. | 21 | 22 | 23 | 24 | 25 |
| --- | --- | --- | --- | --- | --- |
| MMP13 inh | 1 | -1 | 1 | -2 | -30 |
| ROCK2 inh | -4 | -1 | 5 | -1 | 2 |
| tolC growth inh | 2 | 5 | 7 | 69* | -6 |
| JNK3 blocker | -6 | 2 | 5 | 0 | -1 |
| Fluor 339 460 | 1.1 | 1.5 | 1 | 1 | 1.6 |
| HEK293 NFkB inh | / | 22 | 5 | 1 | -3 |
| Abs 340nm | 0.99 | 1 | 1 | 1 | 1.1 |
| PKA inh | -13 | -1 | -1 | -1 | 4 |

26. CCOc1cccc(OCCCCN2CCOCC2)c1
27. Cn1c(=O)c2c(nc(Br)n2CCc2ccccc2)n(C)c1=O
28. Cn1c(=O)n(Cc2ccco2)c(=N)c2c3c(sc21)CCC3
29. CC12CC(NC(=O)N1Cc1ccccc1)c1ccccc1O2 (stereo not given)

| compound no. | 26 | 27 | 28 | 29 |
| --- | --- | --- | --- | --- |
| MMP13 inh | -4 | 3 | 6 | -3 |
| ROCK2 inh | -4 | 1 | 2 | / |
| tolC growth inh | -17 | -8 | 7 | -2 |
| JNK3 blocker | -1 | -4 | -1 | / |
| Fluor 339 460 | 1.1 | 1.1 | 1.1 | 1.1 |
| HEK293 NFkB inh | 12 | 1 | -3 | 6 |
| Abs 340nm | 1 | 1 | 1 | 1.1 |
| PKA inh | -6 | -4 | -3 | 5 |

Screening results: PubChem BioAssay, several laboratories
